# Bioassay records deposited in PubChem BioAssay by Broad Institute.
# AF4-AF9 inh: inhibitors of AF4 peptide binding to AF9, primary screen, biochemical, AlphaScreen, biotin-AF4 peptide, FLAG-AF9, single point. Protein AF-9 (Homo sapiens), P42568. inhibition, % at 10 µM. 350,000 tested, 0.47% active;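 active = every replicate reaching a set inhibition limit, whatever the replicate mean, cut at about 25% in these data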;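 note: 0% = plate neutral control median and 100% = total signal loss; the record names both 10 and 1 µM as test concentration; the first replicate is given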
# Target sequence (P42568 whole entry, looked up): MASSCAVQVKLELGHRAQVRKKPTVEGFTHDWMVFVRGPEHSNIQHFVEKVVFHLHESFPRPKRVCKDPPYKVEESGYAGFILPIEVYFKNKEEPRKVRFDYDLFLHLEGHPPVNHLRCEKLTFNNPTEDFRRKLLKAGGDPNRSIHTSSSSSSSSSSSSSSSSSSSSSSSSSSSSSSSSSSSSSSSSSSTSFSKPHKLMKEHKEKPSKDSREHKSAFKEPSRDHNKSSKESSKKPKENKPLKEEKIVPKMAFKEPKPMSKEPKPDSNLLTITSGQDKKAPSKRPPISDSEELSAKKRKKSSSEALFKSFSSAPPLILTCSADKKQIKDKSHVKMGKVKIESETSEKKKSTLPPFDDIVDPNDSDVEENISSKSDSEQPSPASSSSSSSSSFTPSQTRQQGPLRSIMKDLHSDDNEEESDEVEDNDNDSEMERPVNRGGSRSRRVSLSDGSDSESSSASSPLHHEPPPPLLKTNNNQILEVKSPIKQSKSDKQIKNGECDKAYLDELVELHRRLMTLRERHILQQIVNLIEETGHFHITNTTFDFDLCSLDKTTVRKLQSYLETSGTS
# FGF22 binding: binders of human FGF22 protein, primary screen, FGF22 synaptogenesis inhibitor project, biophysical, thermal shift, single point | 340,000 tested, 1.5% active | recombinant FGF22 thermal shift, SYPRO orange fluorescence; percent of sucrose octasulfate shift, DMSO zero | calls only at 9.99 µM | AID 651658, 2012;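 active = melting point raised past a set limit in the mean and every replicate; three in four hits are not shown here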
# Target sequence (Q9HCT0 whole entry, looked up): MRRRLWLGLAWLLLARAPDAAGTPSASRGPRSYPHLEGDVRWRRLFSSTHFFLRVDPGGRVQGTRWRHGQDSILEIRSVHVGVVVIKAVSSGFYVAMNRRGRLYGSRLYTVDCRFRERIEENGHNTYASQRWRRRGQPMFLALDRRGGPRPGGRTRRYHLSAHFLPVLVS
# * hit, by the source's call; i = inactive; + = active, no number. The list is partial, so the mix of outcomes need not match the whole.
SMILES,AF4-AF9 inh,FGF22 binding
Cc1ccc(S(=O)(=O)Nc2ccc3c(c2)C(=O)N([C@H](C)CO)C[C@H](C)[C@@H](CN(C)S(=O)(=O)c2ccc(C)cc2)OCCCC[C@H](C)O3)cc1,-3.5,i
O=C(C[C@H]1C=C[C@@H](NC(=O)C2CCOCC2)[C@@H](CO)O1)NCC1CCCCC1,-5.0,i
COc1ccc(-c2ccc([C@H]3[C@H](C#N)N[C@H]3CO)cc2)cc1,0.1,i
COc1ccc(NC(=O)Nc2ccc3c(c2)CC(=O)N([C@H](C)CO)C[C@@H](C)[C@H](CN(C)S(=O)(=O)c2ccccc2)O3)cc1,-1.3,i
C[C@H](CO)N1C[C@H](C)[C@H](CN(C)Cc2ccc(F)cc2)OCc2ccccc2-c2c(n(C)c3ccccc23)C1=O,1.6,i
C[C@@H](NC(=O)C[C@H]1CC[C@H](NC(=O)CN2CCOCC2)[C@@H](CO)O1)c1ccccc1,-0.7,i
CC(=O)N1C[C@H]2[C@@H](c3ccccc31)[C@H](CO)N2C(=O)c1ccc(F)cc1,-1.8,i
C[C@H](CO)N1C[C@H](C)[C@@H](CN(C)C(=O)c2cccnc2)Oc2ncc(/C=C/c3ccccc3)cc2C1=O,2.1,i
C[C@@H]1CN([C@@H](C)CO)C(=O)c2cc(NC(=O)Nc3ccc4c(c3)OCO4)ccc2O[C@@H]1CN(C)Cc1ccc2c(c1)OCO2,14,i
COc1ccc(S(=O)(=O)N(C)C[C@H]2Oc3ccc(NC(=O)c4ccncc4)cc3C(=O)N([C@@H](C)CO)C[C@H]2C)cc1,-1.4,i
CN(C)CC(=O)N[C@H]1CC[C@@H](CC(=O)NCCN2CCCCC2)O[C@H]1CO,-10,i
CCCNC(=O)[C@H]1[C@H](CO)[C@H]2Cn3c(ccc(-c4ccccc4F)c3=O)[C@H]2N1C(=O)CC,-3.1,i
COC(=O)C[C@H]1CC[C@@H]2[C@H](COc3ccc(NC(=O)NC(C)C)cc3C(=O)N2C)O1,-1.3,i
C[C@H](CO)N1C[C@H](C)[C@H](CN(C)Cc2ccc(-c3ccccc3)cc2)Oc2ccc(NC(=O)C3CC3)cc2CC1=O,7.8,i
O=C(Cc1ccncc1)NCC[C@@H]1CC[C@H](NC(=O)Nc2ccc(F)cc2)[C@H](CO)O1,0.6,i
C[C@H]1CN([C@@H](C)CO)S(=O)(=O)c2ccc(C#CCN(C)C)cc2O[C@@H]1CN(C)C(=O)C1CCC1,-0.8,i
CO[C@H]1CN(C)C(=O)c2cc(NC(=O)C3CC3)ccc2OC[C@@H](C)N(C(C)=O)C[C@@H]1C,-2.0,i
CCC(=O)Nc1ccc2c(c1)C(=O)N(C)[C@@H]1CC[C@@H](CC(=O)N3CCCCC3)O[C@H]1CO2,-1.6,i
O=C(C[C@H]1C=C[C@H](NC(=O)C2CCOCC2)[C@@H](CO)O1)Nc1ccc(-c2ccccc2)cc1,0.0,i
C/C=C/c1ccc([C@@H]2[C@H](CO)N(CC3CC3)C23CN(C(=O)c2ccc4c(c2)OCO4)C3)cc1,7.4,i
Cc1noc(C)c1S(=O)(=O)Nc1ccc2c(c1)CC(=O)N([C@H](C)CO)C[C@H](C)[C@H](CN(C)C(=O)NC1CCCCC1)O2,-2.1,i
Cc1cccc(C)c1OCc1nnc(SCC(=O)O)n1-c1c(C)cccc1C,6.6,i
C[C@H]1CN([C@@H](C)CO)S(=O)(=O)c2ccc(C#Cc3cccnc3)cc2O[C@H]1CN(C)C(=O)C1CC1,0.2,i
C[C@H]1CN([C@@H](C)CO)C(=O)Cc2cc(NC(=O)C3CCCCC3)ccc2O[C@H]1CN(C)S(C)(=O)=O,-12,i
C[C@H]1CN([C@@H](C)CO)S(=O)(=O)c2ccc(C#CC(C)(C)O)cc2O[C@H]1CN(C)C(=O)CC1CC1,-1.4,i
C[C@H](CO)N1C[C@H](C)[C@H](CN(C)C(=O)c2ccccc2F)Oc2ncc(C#C[C@@H](C)O)cc2C1=O,0.6,i
Cc1noc(C)c1S(=O)(=O)Nc1ccc2c(c1)C(=O)N([C@H](C)CO)C[C@@H](C)[C@H](CN(C)S(=O)(=O)c1ccccc1)OCCCC[C@@H](C)O2,1.6,i
C[C@H]1CN([C@@H](C)CO)C(=O)c2cc(NC(=O)Cc3ccccc3)ccc2O[C@H]1CN(C)Cc1ccc2c(c1)OCO2,0.2,+
CC=Cc1ccc2n(c1=O)C[C@H]1[C@H](CO)[C@@H](C(=O)N3CCN(C)CC3)N(Cc3ccccc3F)[C@@H]21 (mixture of isomers),-0.4,i
C[C@H]1CN([C@@H](C)CO)C(=O)CCCn2cc(nn2)CO[C@H]1CN(C)C(=O)Oc1ccccc1,-1.3,i
CC(C)NC(=O)N1CC[C@H]2[C@@H]1c1cc(Br)ccc1N(C)[C@H]2CO,-12,i
CCNC(=O)C[C@H]1CC[C@@H]2[C@@H](COc3ccc(NC(=O)Nc4c(C)noc4C)cc3C(=O)N2C)O1,-0.6,i
COc1ccc(C#Cc2cnc3c(c2)C(=O)N([C@@H](C)CO)C[C@H](C)[C@H](CN(C)C(C)=O)O3)cc1,-10,i
CO[C@H]1CN(C)C(=O)c2cc(NC(=O)C3CCC3)ccc2OC[C@@H](C)N(C)C[C@@H]1C,-1.9,i
C[C@@H]1CN([C@@H](C)CO)C(=O)Cc2cc(NS(=O)(=O)c3ccc(F)cc3)ccc2O[C@H]1CN(C)Cc1ccc(C(F)(F)F)cc1,-1.4,i
Cc1ccc(S(=O)(=O)N(C)C[C@@H]2OCCCC[C@@H](C)Oc3ccc(NC(=O)Nc4ccc(C(F)(F)F)cc4)cc3C(=O)N([C@@H](C)CO)C[C@@H]2C)cc1,-7.3,i
COc1ccc(S(=O)(=O)N(C)C[C@@H]2Oc3c(NS(C)(=O)=O)cccc3C(=O)N([C@H](C)CO)C[C@@H]2C)cc1,-1.4,i
COc1ccc(NC(=O)N[C@H]2CC[C@H](CCNS(=O)(=O)c3ccccc3F)O[C@@H]2CO)cc1,4.6,i
COc1ccc(-c2cn(CC(=O)N3CCN(C)CC3)nn2)cc1OC,-4.2,i
COc1ccc(NC(=O)N[C@@H]2CC[C@H](CCn3cc(-c4ccccn4)nn3)O[C@@H]2CO)cc1,0.0,i
CO[C@@H]1CN(C)C(=O)c2ccc(NC(=O)C3CCC3)cc2OC[C@@H](C)N(C(=O)NC(C)C)C[C@H]1C,-1.8,i
COc1ccc(-c2cnc3c(c2)C(=O)N([C@H](C)CO)C[C@H](C)[C@H](CN(C)Cc2ccc(C(=O)O)cc2)O3)cc1,-4.3,i
C[C@@H]1CN([C@@H](C)CO)C(=O)c2cc(NS(=O)(=O)c3cccs3)ccc2O[C@@H](C)CCCCO[C@@H]1CN(C)C(=O)Nc1ccccc1,-2.5,i
C[C@H](CO)N1C[C@H](C)[C@H](CN(C)C(=O)Nc2ccc3c(c2)OCO3)Oc2ccc(NC(=O)Cn3cnnn3)cc2CC1=O,-1.1,i
C[C@H]1CN([C@@H](C)CO)S(=O)(=O)c2ccc(/C=C/c3ccccc3)cc2O[C@H]1CN(C)C(=O)Nc1cc(F)ccc1F,5.3,+
CCCC(=O)Nc1ccc2c(c1)C(=O)N(C)[C@H]1CC[C@H](CC(=O)NCC3CCCCC3)O[C@H]1CO2,0.3,i
C[C@@H]1CN([C@H](C)CO)C(=O)c2cccc(NS(=O)(=O)c3cccs3)c2O[C@@H]1CN(C)Cc1ccc(C(F)(F)F)cc1,0.3,i
Cc1cc(C(=O)Nc2cccc3c2O[C@H](CN(C)C(=O)Nc2cccc4ccccc24)[C@@H](C)CN([C@H](C)CO)C3=O)n(C)n1,-5.0,i
C[C@H]1CN([C@@H](C)CO)S(=O)(=O)c2ccc(C#Cc3ccccc3)cc2O[C@@H]1CN(C)C,14,i
CCC(=O)Nc1ccc2c(c1)C(=O)N(C)[C@@H]1CC[C@H](CC(=O)NCc3ccccc3)O[C@@H]1CO2,7.8,i
C[C@@H]1CN([C@@H](C)CO)C(=O)c2cccc(NS(=O)(=O)c3cn(C)cn3)c2O[C@H]1CN(C)Cc1ccncc1,1.1,i
CO[C@H]1CN(C)C(=O)c2cc(NC(C)=O)ccc2OC[C@H](C)N(C(=O)CC2CC2)C[C@@H]1C,-2.0,i
COc1ccc(NC(=O)N(C)C[C@H]2Oc3cc(-c4cccc(C(=O)N(C)C)c4)ccc3S(=O)(=O)N([C@H](C)CO)C[C@H]2C)cc1,-1.0,i
C[C@H]1CN([C@@H](C)CO)S(=O)(=O)c2ccc(-c3cccc(C(=O)N(C)C)c3)cc2O[C@@H]1CN(C)C,-0.6,i
CN1CCCCN2[C@H](CO)[C@H](c3ccc(-c4cccnc4)cc3)[C@@H]2C1,3.2,i
C[C@@H]1CN([C@H](C)CO)C(=O)c2cc(NC(=O)Nc3cccc4ccccc34)ccc2O[C@@H](C)CCCCO[C@@H]1CN(C)S(=O)(=O)c1cn(C)cn1,4.6,i
C[C@H](CO)N1C[C@H](C)[C@@H](CN(C)S(=O)(=O)c2cccs2)Oc2ccc(NC(=O)CCC(F)(F)F)cc2CC1=O,-0.5,i
COc1ccc(S(=O)(=O)Nc2ccc3c(c2)C(=O)N([C@H](C)CO)C[C@@H](C)[C@H](CN(C)C(=O)NC2CCCCC2)OCCCC[C@@H](C)O3)cc1,4.4,i
COc1ccccc1-c1ccc([C@H]2[C@@H](CO)N3CCCCN(C(=O)CN4CCOCC4)C[C@H]23)cc1,-7.0,i
O=C(Nc1ccc(F)cc1)N1C[C@@H]2[C@H](c3ccccc31)[C@H](CO)N2C(=O)Cc1ccccn1,-15,i

# Continued:
SMILES,AF4-AF9 inh,FGF22 binding
CN(C)Cc1cn(CC[C@H]2CC[C@@H](NC(=O)Cc3cccnc3)[C@@H](CO)O2)nn1,-1.2,i
CN1CCN(C(=O)C[C@H]2CC[C@@H]3[C@H](COC[C@@H](O)CN3CC3CCCCC3)O2)CC1,-1.5,i
Cc1ccc(S(=O)(=O)NCC[C@@H]2CC[C@@H](NC(=O)CCN3CCCCC3)[C@@H](CO)O2)cc1,3.3,i
CCCC#Cc1ccc([C@@H]2[C@H]3CN(S(=O)(=O)CC)CCCCN3[C@H]2CO)cc1,-3.6,i
Cc1cccc(CN(C)C[C@@H]2OCc3cn(nn3)CCCC(=O)N([C@@H](C)CO)C[C@H]2C)c1,-1.4,i
C[C@H]1CN([C@@H](C)CO)C(=O)c2cc(NS(=O)(=O)c3cn(C)cn3)ccc2O[C@H]1CN(C)S(=O)(=O)c1ccc(F)cc1,-1.8,i
Cc1ccc(S(=O)(=O)N(C)C[C@H]2Oc3ccc(NC(=O)CCCCCC(=O)Nc4ccccc4N)cc3C(=O)N([C@H](C)CO)C[C@H]2C)cc1,-2.1,i
COc1ccc(NC(=O)Nc2cccc3c2O[C@H](CN(C)Cc2ccc(-c4ccccc4)cc2)[C@H](C)CN([C@H](C)CO)C3=O)cc1,5.2,i
C[C@@H]1CN([C@H](C)CO)C(=O)c2cc(NS(C)(=O)=O)ccc2O[C@H]1CN(C)C(=O)Nc1ccc(F)cc1,-0.7,i
CO[C@@H]1CN(C)C(=O)c2ccc(NC(=O)C3CC3)cc2OC[C@H](C)N(C(=O)c2cnccn2)C[C@H]1C,-0.3,i
CCCNC(=O)N1CC2(CCN(C(=O)c3ccncc3)CC2)c2c([nH]c3cc(OC)ccc23)[C@H]1CO,0.6,i
C[C@@H]1CN([C@H](C)CO)C(=O)c2cc(NS(=O)(=O)c3ccc(Cl)cc3)ccc2O[C@H]1CN(C)Cc1ccc(C(=O)Nc2ccccc2N)cc1,-3.6,i
C[C@H]1CN([C@@H](C)CO)S(=O)(=O)c2ccc(C#CC3(O)CCCC3)cc2O[C@@H]1CN(C)C(=O)c1cccnc1,-0.7,i
O=C(c1ccccc1F)N1CC2(C1)[C@H](c1ccccc1)[C@@H](CO)N2CC1CCOCC1,0.1,i
CC(C)NC(=O)Nc1ccc2c(c1)C(=O)N([C@@H](C)CO)C[C@@H](C)[C@@H](CN(C)C(=O)c1ccncc1)OCCCC[C@@H](C)O2,-0.5,i
C[C@@H]1CCCCO[C@@H](CN(C)S(=O)(=O)c2ccc(F)cc2)[C@H](C)CN([C@H](C)CO)C(=O)c2cc(N(C)C)ccc2O1,6.1,i

# Sorted by length of the SMILES (ascending): 9 of the compounds above
SMILES,AF4-AF9 inh,FGF22 binding
Cc1cccc(CN(C)C[C@@H]2OCc3cn(nn3)CCCC(=O)N([C@@H](C)CO)C[C@H]2C)c1,-1.4,i
CO[C@@H]1CN(C)C(=O)c2ccc(NC(=O)C3CC3)cc2OC[C@H](C)N(C(=O)c2cnccn2)C[C@H]1C,-0.3,i
C[C@@H]1CN([C@H](C)CO)C(=O)c2cc(NS(C)(=O)=O)ccc2O[C@H]1CN(C)C(=O)Nc1ccc(F)cc1,-0.7,i
C[C@H]1CN([C@@H](C)CO)S(=O)(=O)c2ccc(C#CC3(O)CCCC3)cc2O[C@@H]1CN(C)C(=O)c1cccnc1,-0.7,i
COc1ccc(NC(=O)Nc2cccc3c2O[C@H](CN(C)Cc2ccc(-c4ccccc4)cc2)[C@H](C)CN([C@H](C)CO)C3=O)cc1,5.2,i
C[C@H]1CN([C@@H](C)CO)C(=O)c2cc(NS(=O)(=O)c3cn(C)cn3)ccc2O[C@H]1CN(C)S(=O)(=O)c1ccc(F)cc1,-1.8,i
C[C@@H]1CCCCO[C@@H](CN(C)S(=O)(=O)c2ccc(F)cc2)[C@H](C)CN([C@H](C)CO)C(=O)c2cc(N(C)C)ccc2O1,6.1,i
Cc1ccc(S(=O)(=O)N(C)C[C@H]2Oc3ccc(NC(=O)CCCCCC(=O)Nc4ccccc4N)cc3C(=O)N([C@H](C)CO)C[C@H]2C)cc1,-2.1,i
C[C@@H]1CN([C@H](C)CO)C(=O)c2cc(NS(=O)(=O)c3ccc(Cl)cc3)ccc2O[C@H]1CN(C)Cc1ccc(C(=O)Nc2ccccc2N)cc1,-3.6,i
